gsp agonist: agonists of gsp mutant (McCune-Albright syndrome). gsp mutant cells, cAMP HTRF, 30 min; control for the full effect not named in the record. Potency, µM (highest dose often 76.9 µM), for the others: top-dose activation (cAMP increase), most hits filed as activators. hit rate 0.13% among 340,000; active = well fitted activation curve with a large enough effect; inconclusive = small, poorly fitted or top-dose-only effect, or another doubt; inactive = no such curve, though single readings can be large or run the other way; cell line not stated here;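 further: phosphodiesterase inhibitor Ro 20-1724 added with compounds to block cAMP breakdown; potency means the concentration at half of the fitted maximal effect; nearly all actives have a fitted effect of over 60% in size; about a fifth of the inactives were tested at one dose only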
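Cells stably selected in G418 were plated at 2000/well, grown 16-24 hr, then given compounds in DMSO with the PDE inhibitor […] (300 uM solution added) for 30 min at 37C; cAMP was read by HTRF.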
D2 ag: agonists of human D2 dopamine receptor (beta-arrestin); DiscoveRx PathHunter D2 beta-arrestin, luminescence, 90 min; 100% = 57 uM dopamine signal; activation, % (no concentration beside the values); hit rate 0.084% among 360,000; in the data active = activation above about 40%; inconclusive = about 15% to 40%; inactive = below about 15%; further: compound concentration not given in the record; the text of the record calls up to 30% inactive
Target sequence (P14416 whole entry, looked up): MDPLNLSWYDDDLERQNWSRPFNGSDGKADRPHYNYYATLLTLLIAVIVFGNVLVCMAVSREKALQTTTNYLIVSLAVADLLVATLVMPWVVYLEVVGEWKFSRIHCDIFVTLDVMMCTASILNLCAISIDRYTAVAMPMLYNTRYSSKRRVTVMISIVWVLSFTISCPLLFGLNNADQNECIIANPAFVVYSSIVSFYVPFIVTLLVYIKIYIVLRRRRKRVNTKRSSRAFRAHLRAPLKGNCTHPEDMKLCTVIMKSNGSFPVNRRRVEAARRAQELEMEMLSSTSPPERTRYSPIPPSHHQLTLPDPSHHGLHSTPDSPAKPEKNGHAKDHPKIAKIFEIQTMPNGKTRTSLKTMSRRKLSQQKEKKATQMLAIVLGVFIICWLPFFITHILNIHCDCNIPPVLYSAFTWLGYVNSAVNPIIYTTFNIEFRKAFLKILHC
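DiscoveRx PathHunter D2 beta-arrestin cells (2,100/well) attached overnight, then compound-stimulated 90 min at 37 C in HBSS/10 mM HEPES/0.1% Tween-20 buffer; beta-galactosidase complementation read by luminescence after 1 h at ambient temperature. Dopamine 57 uM final (EC100) as control.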
ClpP mod: qHTS Assay for Activators of ClpP; purified B. subtilis ClpP, FRET peptide cleavage, 20 min; hit rate 1.9% among 340,000; Potency, µM (doses to about 57.5 µM), for the others: at the top dose activity change, negative = active; active = well fitted falling curve with a large enough effect; inconclusive = small, poorly fitted or top-dose-only effect; inactive = no such curve, though single readings can be large or run the other way; further: potency means the concentration at half of the fitted maximal effect; the source files actives as falling curves though it sought activators and does not explain the sign; nearly all actives have a fitted effect of over 65% in size; many hits overshoot -100%
Target sequence (P80244 whole entry, looked up): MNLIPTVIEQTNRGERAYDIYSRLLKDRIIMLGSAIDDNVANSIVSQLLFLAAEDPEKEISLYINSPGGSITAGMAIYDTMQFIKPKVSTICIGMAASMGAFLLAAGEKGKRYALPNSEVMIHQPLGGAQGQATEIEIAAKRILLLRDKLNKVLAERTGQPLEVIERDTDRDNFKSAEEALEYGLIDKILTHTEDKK
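Buffer: 100 mM Tris/HCl pH8, 100 mM KCl, 0.05% low protease BSA, 2.5% glycerol, 0.01% Tween-20. ClpP 10 microg/mL final; 20 min RT; delta FRET normalized to ADEP and DMSO controls.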
gsp antag: antagonizes gsp, the McCune-Albright syndrome mutation | AID 624288 | gsp-mutant cells, cAMP HTRF, 30 min; control for the full effect not named in the record | hit rate 0.4% among 340,000 | Potency, µM (doses to about 76.9 µM), for the others: at the highest dose activity change, negative = inhibition, actives largely listed as inhibitors; active = falling curve of any shape with a large fitted effect; inconclusive = falling curve, mostly with a smaller effect; inactive = flat or rising curve; cell line not stated here;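 further: intracellular cAMP measured with PDE inhibitor Ro 20-1724 present during compound exposure; potency means the concentration at half of the fitted maximal effect; on the % scale 0 is the no-effect control and ±100 the full control effect; nearly all actives have a fitted effect of over 65% in size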
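Cells in G418 medium, seeded 16-24 h, 37C; buffer exchange to DPBS + 1 mM CaCl2, 0.5 mM MgCl2, 0.05% BSA; cpds in DMSO + […] (300 uM stock), 30 min 37C; HTRF cAMP detection.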
Menin MLL FP FL: displaces fluorescein MLL peptide from human menin; Fluorescence polarization, fluorescein-MLL peptide displacement from menin; FP activity change, % at 61.4 µM; AID 1766; 290,000 tested, under 10 active; inconclusive = falling polarisation curve, or a change in total fluorescence; inactive = total fluorescence flat and polarisation flat or rising; no compound was filed as active; the % refers to the polarisation; negative = inhibition;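 further: % of control where 0% means no effect; inhibitors lower the polarisation; unlabelled MLL peptide was the positive control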
PINK1 expr mod: PINK1 expression modulation. PINK1 immunofluorescence, high-content cytometry, 24 h. Potency, µM (top dose mostly 76.6 µM), inactives show top-dose activation (PINK1 increase), most hits filed as activators. hit rate 0.2% among 410,000. AID 624263; active = well fitted activation curve with a large enough effect; inconclusive = small, poorly fitted or top-dose-only effect; inactive = flat fitted curve, though single readings scatter; cell line not stated here;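 further: potency means the concentration at half of the fitted maximal effect; % of control where 0% means no effect; nearly all actives have a fitted effect of over 65% in size; a mitochondrial uncoupler was the plate control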
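Stable cell line treated 24 h with compounds at 5 concentrations (CCCP controls), then fixed and immunostained for PINK1 plus nuclear and cell stains; PINK1 immunofluorescence quantified by laser-scanning microplate cytometry.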
Sfp PPTase inh: Sfp phosphopantetheinyl transferase inhibition; hit rate 3.5% among 310,000; Potency, µM, inactives show max response, negative = inhibition, actives largely listed as inhibitors; Biochemical Sfp PPTase activity, qHTS; AID 1490; active means well fitted inhibition curve with a large enough effect; inconclusive means small, poorly fitted or top-dose-only effect, or another doubt; inactive means no such curve, though single readings can be large or run the other way;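 further: the enzyme is Sfp with the accession as filed and its product quenches rhodamine fluorescence; potency means the concentration at half of the fitted maximal effect; 0% = enzyme reaction without inhibitor and -100% = no enzyme wells; top concentration of the series not given in the record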
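Reaction rates are the 30-min fluorescence difference (ex 525, em 598 nm) in wells containing 15 nM Sfp, 5 uM rhodamine-CoA and 12.5 uM BHQ-2-YbbR at pH 7.6 with 10 mM MgCl2.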
* hit, by the source's call; u = inconclusive; x = not tested or not shown; [ ] = dose if it differs, or a comment.

SMILES	gsp agonist	D2 ag	ClpP mod	gsp antag	Menin MLL FP FL	PINK1 expr mod	Sfp PPTase inh
CCOC(=O)C1(Cc2ccc(Cl)cc2)CCN(Cc2cnc(N)nc2)CC1	12%[15.4 µM]	-1.4	x	-3%	-1.1	1.0%	0%
O=C(Cn1c(=O)oc2cc(S(=O)(=O)N3CCCC3)ccc21)N1CCN(c2ccccc2)CC1	-45%[inhibitor]	-6.2	-2.6%	-5%	1.2	7.6%	16%
O=C(O)C1CC=CCC1C(=O)Nc1ccccc1C(=O)N1CCN(c2ccccc2)CC1 (centres undefined)	-19%	-1.6	2.5%	-2%	-1.5	0.6%	23%
N#Cc1ccccc1NC(=O)COC(=O)CN1C(=O)C2CCCCC2C1=O (centres undefined)	-24%	-0.3	x	5%	x	0.1%	x
COc1ccc(CNC(=O)C2CCCN2C(=O)NCc2ccccc2)cc1 (centres undefined)	-22%	7.6	-0.1%	3%	-5.0	1.3%	19%
O=C(COc1ccccc1)Nc1nccs1	-10%	-1.2	0.4%	-3%	3.3	x	-8%
CCOc1ccc(NS(=O)(=O)c2cc(C(=O)NCC3CCCO3)ccc2Cl)cc1 (centres undefined)	7%[15.4 µM]	-3.9	x	1%	x	2.0%	x
COCCn1c(=O)c(-c2ccccc2)nc2cnc(Oc3ccc(OC)cc3)nc21	x	x	x	x	-1.1	2.1%	8%
COc1ccc(N=C2SC(C(N)=O)CC(=O)N2CCc2ccc(OC)c(OC)c2)cc1 (centres undefined)	-22%	-2.9	1.1%	-5%	0.3	-1.7%	2%
COc1ccccc1CCn1c(=O)c(-c2ccc(F)c(F)c2)nc2cncnc21	x	x	x	x	2.4	0.1%	-2%
CC(C)(C)NC(=O)/C=C/c1ccc(C(F)(F)F)cc1	16%[15.4 µM]	0.2	x	7%	3.0	7.4%	-2%
O=C(O)COc1cnc2ccccc2n1	-27%	-2.7	x	9%	u	-0.2%	-5%
Cc1nc(NC(=O)c2ccccc2O)sc1C	u	-3.5	-15%	-4%	3.8	3.1%	2%
O=C1CSC(c2cccnc2)N1c1ccccc1 (centres undefined)	24%	-12	-3.4%	-7%	-1.7	-0.5%	7%
Cc1ccc(CN(CC(O)COc2cccc3[nH]cc(C)c23)C(C)(C)C)cc1 (centres undefined)	-2%	-5.5	-2.4%	6%	3.1	0.9%	-18%
Cc1ccc(NC(=O)C2CC(O)CN2C(=O)OCc2ccccc2)cc1C (centres undefined)	12%	-3.4	1.5%	1%	3.3	0.8%	6%
NCC(O)COc1ccc2c(c1)OCO2 (centres undefined)	4%	-3.5	-1.0%	7%	-3.0	-0.4%	6%
O=C(NCCc1c[nH]c2ccccc12)/C(=C\c1cccnc1)NC(=O)c1cccs1	-5%	-3.3	5.2%	6%	5.0	-3.2%	-13%
Cc1cccc(OC(C)C(=O)Nc2ccccc2C(=O)N2CCCCC2)c1 (centres undefined)	12%[15.4 µM]	-4.0	x	-6%	x	-1.5%	-20%
O=C(NC(=S)Nc1nc(-c2cccc3ccccc23)cs1)c1cc2ccccc2o1	11%[15.4 µM]	-1.3	-1.9%	13%	6.5	-3.0%	-15%
CC(=O)OCP(C)(=O)COC(C)=O	17%	1.0	-2.8%	5%	1.0	-1.4%	15%
O=C(COc1ccc(Cl)cc1)Nc1cccc(S(=O)(=O)NC2=NCCCCC2)c1	-2%	2.8	0.4%	-10%	x	5.0%	x
CC(C)(C)c1ccc(C(=O)N2CCC(C(=O)NCc3ccncc3)CC2)cc1	27%	-4.3	-1.2%	-5%	-1.3	-0.2%	-2%
CSCc1c(C(=O)NC2CCCc3ccccc32)oc2ccccc12 (centres undefined)	-42%[inhibitor]	-1.0	0.4%	1%	-1.0	3.2%	-8%
Cc1ccc(NC(=O)c2cc([N+](=O)[O-])ccc2N2CCOCC2)cc1C	-28%	-2.3	-0.4%	-1%	x	3.5%	11%
Cc1nc2sccn2c(=O)c1S(=O)(=O)NCCc1ccc(Cl)cc1	14%	-2.0	-13%	14%	x	0.1%	24%
CCCCn1c(N)c(N(CCOC)C(=O)CCNC(=O)c2ccccc2Cl)c(=O)[nH]c1=O	-12%	-1.0	-1.1%	4%	0.1	6.2%	2%
Cc1ccc(S(=O)(=O)N2CCN(C(=O)COC(=O)COc3ccccc3)CC2)cc1	u	1.5	0.6%	-4%	4.7	2.9%[38.3 µM]	0%
Cn1ccnc1CN1CCN(C(=O)c2cc(COc3ccc(F)c(F)c3)on2)CC1	11%[15.4 µM]	1.4	-1.4%	10%	x	3.0%	5%
COc1ccc(C2CC3(O)NC(=O)C(C#N)(C3C)C2(C#N)C#N)cc1 (centres undefined)	9%	0.9	0.0%	1%	-2.1	-0.8%	u
COc1cccc(F)c1C(C[N+](=O)[O-])c1c(N)n(C)c(=O)n(C)c1=O (centres undefined)	u	0.4	0.1%	u	3.0	0.9%	-3%
CS(=O)(=O)N1CCN(C(=O)c2ccncc2)CC1	4%	-1.2	-0.4%	13%	-1.3	0.8%	7%
Cc1cc(C)n(-c2cc(Cl)ccc2[N+](=O)[O-])n1	-40%[inhibitor]	0.5	-0.7%	-16%	2.0	-0.1%	12%
Cc1coc2c(C)c3oc(=O)c(CCC(=O)N4C[C@H]5C[C@@H](C4)c4cccc(=O)n4C5)c(C)c3cc12	x	-7.1	-26%	-12%	-1.4	7.8%	10%
CC(=O)c1sc(NC(=O)c2ccccc2F)nc1C	-1%	-5.2	-4.4%	-10%	-1.1	1.0%	6%
O=C(NCc1ccc2c(c1)OCO2)c1cc([N+](=O)[O-])ccc1N1CCOCC1	15%	0.7	1.6%	13%	x	8.3%	x
CNC(=S)N/N=C(\C)c1ccc2c(c1)OCCO2	-35%[inhibitor]	-2.9	-1.1%	2%	0.3	-1.1%	50µM*
CCSC(=O)N1c2ccc(OC)cc2C=CC1C#N (centres undefined)	24%	-0.2	-28%	7%	x	-3.1%	x
COc1cccc(/C=C/C(=O)OCC(=O)NC2CC2)c1OC	3%	4.9	-1.9%	9%	x	-1.7%	x
C#CCOCCOCCOCCNc1nc(N2CCN(C(=O)[C@H](CCC(=O)O)n3cc([C@@H](N)CO)nn3)CC2)nc(N2CCN(C(=O)[C@H](CCC(=O)O)n3cc([C@@H](N)CCSC)nn3)CC2)n1	x	0.0	0.0%	4%	x	0.1%	x

Two entries from above, in CSV form:
mol,gsp agonist,D2 ag,ClpP mod,gsp antag,Menin MLL FP FL,PINK1 expr mod,Sfp PPTase inh
O=C(COc1ccc(Cl)cc1)Nc1cccc(S(=O)(=O)NC2=NCCCCC2)c1,-2%,2.8,0.4%,-10%,x,5.0%,x
CC(C)(C)c1ccc(C(=O)N2CCC(C(=O)NCc3ccncc3)CC2)cc1,27%,-4.3,-1.2%,-5%,-1.3,-0.2%,-2%

The results go on:
SMILES	gsp agonist	D2 ag	ClpP mod	gsp antag	Menin MLL FP FL	PINK1 expr mod	Sfp PPTase inh
C#CCOCCOCCOCCNc1nc(N2CCOCC2)nc(N2CCN(C(=O)[C@H]([C@@H](C)O)n3cc(CCCCN)nn3)CC2)n1	x	-4.0	-4.1%	-3%	-3.4	2.5%	6%
O=C(Nc1cccc(Cl)c1N1CCOCC1)c1cccnc1	2%	-1.5	x	-2%	0.3	-1.5%	-7%
CCCc1cnc(N2CCN(S(C)(=O)=O)CC2)nc1	1%	-4.2	-27%	9%	0.1	6.5%	10%
COC(=O)c1c(NC(=O)/C=C/C(=O)O)sc(C)c1-c1ccc(C)cc1	11%	-1.9	x	-15%	2.8	-1.9%	5%
COCCCNc1nc2c(c(=O)n(C)c(=O)n2C)n1Cc1cccc(OC)c1	-44%[inhibitor]	1.4	-2.0%	-7%	-1.7	-3.4%	-6%
CC(=O)Nc1c2c3c(cccc3n(C)c1=O)C(=O)c1ccccc1-2	u	-1.4	1.8%	4%	u	-1.1%	-24%
O=C1Nc2ccc(S(=O)(=O)NCCCO)c3cccc1c23	-2%	-3.2	4.6%	10%	0.6	2.6%	10%
OC1CCCN(Cc2cccc3ccccc23)C1 (centres undefined)	-7%	-2.2	-0.6%	-3%	4.3	0.7%	12%
CCOC(=O)C1(C)/C(=N/Nc2ccccc2OC)C(=O)C(=O)N1c1ccccc1 (centres undefined)	4%	-0.1	x	-6%	1.4	2.1%	-23%
O=C(NCc1ccccc1F)c1ccc(S(=O)(=O)N2CCCC2)cc1	-17%	-1.3	1.7%	x	x	-0.3%	x
CCCc1ccc(Oc2cc(Cl)nc(N)n2)cc1	-64%[inhibitor]	2.6	-3.1%	11%	-1.8	6.4%	21%
Cc1cccc2c1-c1sc(C(=O)NCCCN3CCCC(C)C3)cc1CO2 (centres undefined)	u	-0.8	4.2%	8%	4.5	0.2%	-4%
Cc1ccc(N2CC(C(=O)Nc3nc4ccc(S(C)(=O)=O)cc4s3)CC2=O)cc1 (centres undefined)	u	5.0	0.7%	-13%	16	-0.4%	45µM*
Cc1cccc(-c2noc(CCC(=O)NCc3ccco3)n2)c1	0%	-1.0	1.4%	3%	1.2	25%[38.3 µM]	1%
CC(CN1CCCCC1)OC(=O)c1ccc2c(c1)OCO2 (centres undefined)	-31%[inhibitor]	-3.6	-12%	-6%	-0.3	1.4%	6%
COc1ccc(C=CC(=O)c2ccc(OC)c(OC)c2O)cc1OC	9%	4.2	x	-15%	x	-3.2%	x
CC(c1ccccc1)n1cc(C(=O)NCc2ccccn2)nn1 (centres undefined)	2%	4.7	-3.5%	16%	1.6	-1.8%	-11%
Cc1ccc2nc(NCc3ccccc3)c(C=NCc3cccnc3)c(=O)n2c1	-31%[inhibitor][15.4 µM]	-4.7	x	2%	4.1	8.9%	-10%
Cc1cc(C)n(CCC(=O)N2CCN(S(=O)(=O)c3ccccc3)CC2)n1	-2%[15.4 µM]	-6.0	0.2%	10%	2.3	2.2%	28%
Cc1ccc(S(=O)(=O)N2C[C@H]3[C@H]4C(=O)N(C)C(=O)[C@H]4CC(=O)[C@H]3[C@@H]2c2ccccc2Cl)cc1	x	-1.5	2.1%	x	x	1.9%	x
COc1ccc(CCNCC(=O)Nc2ccc(C)c(S(=O)(=O)N(C)C)c2)cc1OC	u	2.2	-2.3%	4%	-2.7	-1.0%	u

Screening results: PubChem BioAssay, National Center for Advancing Translational Sciences (NCATS)
